# Rv3671c protease = inhibitors of M. tuberculosis serine protease Rv3671c. P9WHR9. inhibition, % at 5.96 µM. 320,000 tested, 0.048% active. AID 2606; in the data active = inhibition above about 38%;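 also: extracellular domain of Rv3671c used as enzyme; 0% = enzyme with DMSO and 100% = no enzyme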
# Target sequence (P9WHR9 whole entry, looked up, the tested form may be a part): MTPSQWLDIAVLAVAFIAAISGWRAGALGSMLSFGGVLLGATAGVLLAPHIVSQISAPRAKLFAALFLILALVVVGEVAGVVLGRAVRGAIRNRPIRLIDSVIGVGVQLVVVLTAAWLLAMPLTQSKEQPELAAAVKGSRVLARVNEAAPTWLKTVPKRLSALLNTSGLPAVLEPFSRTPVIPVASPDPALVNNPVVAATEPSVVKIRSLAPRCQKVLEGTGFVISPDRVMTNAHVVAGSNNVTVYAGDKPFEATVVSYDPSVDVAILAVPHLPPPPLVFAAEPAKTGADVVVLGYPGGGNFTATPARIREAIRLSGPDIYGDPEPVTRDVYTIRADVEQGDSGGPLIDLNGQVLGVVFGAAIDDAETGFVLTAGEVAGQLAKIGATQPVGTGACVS
# PrPC TRFRET = inhibitors of human cell surface prion protein PrPC; inhibition, % at 13.8 µM; P04156; 370,000 tested, 0.43% active; AID 720596; TR-FRET read-out; in the data active = inhibition above about 24%; also: 0% = median of the test wells and 100% = reference compound wells
# UGM FP inh = blocks M. tuberculosis UGM enzyme; P9WIQ1; purified UGM, fluorescence polarization probe displacement; inhibition, % at 10 µM; 320,000 tested, 0.06% active; AID 504406; in the data active = inhibition above about 10%, passing the limit was not always enough
# FadD28 FP inh = blocks FadD28 binding to the bisubstrate probe; fluorescence polarization; inhibition, % at 12.5 µM; 360,000 tested, 0.22% active; in the data active = inhibition above about 8.5%, passing the limit was not always enough
# Mtb BioA inh = blocks M. tuberculosis BioA enzyme activity | purified M. tuberculosis BioA enzyme, plate reader | inhibition, % at 9.99 µM | 360,000 tested, 0.096% active | AID 602481; in the data active = inhibition above about 40%
# The depositor's hits bear a star; x = not tested or not shown; & = joins results of further samples.
# Short forms – A = Rv3671c protease; B = PrPC TRFRET; C = UGM FP inh; D = FadD28 FP inh; E = Mtb BioA inh
> O=C1C(CCS(=O)c2ccccc2)C(=O)N(c2ccccc2)N1c1ccccc1 (stereo unspecified)
  A = -2.8 | B = 7.0 | C = -0.3 | D = -2.0 | E = -0.8

> CC(C)NCC(O)COc1ccc(CC(N)=O)cc1 (stereo unspecified)
  A = 1.5 | B = 3.4 | C = -5.5 | D = -1.6 | E = -0.2

> C[C@H]1O[C@H]1P(=O)(O)O
  A = 5.2 | B = 1.4 | C = x | D = 0.9 | E = 0.4

> CC(=O)CC(c1ccccc1)c1c(O)c2ccccc2oc1=O (stereo unspecified)
  A = -2.5&4.3&1.8 | B = 6.0&0.4&-2.1 | C = 1.3&7.6&-1.4 | D = -3.3&-1.5&-2.7 | E = -0.9&-0.5&2.3

> COc1ccc(C(=O)N2CCCC2=O)cc1
  A = 3.8 | B = -5.6 | C = 1.3 | D = -0.9 | E = -0.5&0.7

> CCOC(=O)c1cncn1C(C)c1ccccc1 (stereo unspecified)
  A = 0.4 | B = 5.6 | C = -3.4 | D = -3.5 | E = 0.3&-0.3

> CCCNCC(O)COc1ccccc1C(=O)CCc1ccccc1 (stereo unspecified)
  A = -6.1 | B = 2.7 | C = 2.9 | D = -0.7 | E = 0.3

> CC(C)[N+]1(C)[C@@H]2CC[C@H]1CC(OC(=O)C(CO)c1ccccc1)C2 (stereo partly specified)
  A = 1.6&6.0&-2.9 | B = -0.1&9.8 | C = -4.1&-3.7&0.5 | D = -0.4&-1.1&-0.1 | E = 0.2&-1.7&-0.8

> CC(C)NC[C@H](O)COc1ccc(CC(N)=O)cc1
  A = -1.5 | B = -6.7 | C = -0.1 | D = -1.6 | E = 0.1

> O=C1CC[C@@]2(O)[C@H]3Cc4ccc(O)c5c4[C@@]2(CCN3CC2CC2)C1O5 (stereo partly specified)
  A = x | B = 1.4&-5.0 | C = x | D = x | E = x

> CN[C@H](C)[C@H](O)c1ccccc1
  A = 11.7 | B = x | C = -1.9 | D = -2.4 | E = 0.1

> CCn1cc(C(=O)O)c(=O)c2cc(F)c(N3CCN(C)CC3)cc21
  A = -9.1 | B = 4.0 | C = 3.1 | D = -1.5 | E = -2.6

> COc1ccc2cc(C(c3nnnn3CCc3ccccc3)N3CCC(O)CC3)c(=O)[nH]c2c1 (stereo unspecified)
  A = -47.0 | B = 2.2 | C = 2.1 | D = -4.4 | E = 0.2

> O=C(NC1CCC(Oc2ccc(C(=O)O)cc2)CC1)NC12CC3CC(CC(C3)C1)C2 (stereo unspecified)
  A = -1.6 | B = -8.0 | C = 2.6 | D = -1.0 | E = 1.1

> CN(C)CC[C@@H](c1ccc(Cl)cc1)c1ccccn1
  A = -0.9 | B = -7.6 | C = 2.5 | D = 0.3 | E = 0.1

# Overlap with the part before: 3 compounds, then new ones.
# Short forms – A = Rv3671c protease; B = PrPC TRFRET; C = UGM FP inh; D = FadD28 FP inh; E = Mtb BioA inh
> COc1ccc2cc(C(c3nnnn3CCc3ccccc3)N3CCC(O)CC3)c(=O)[nH]c2c1 (stereo unspecified)
  A = -47.0 | B = 2.2 | C = 2.1 | D = -4.4 | E = 0.2

> O=C(NC1CCC(Oc2ccc(C(=O)O)cc2)CC1)NC12CC3CC(CC(C3)C1)C2 (stereo unspecified)
  A = -1.6 | B = -8.0 | C = 2.6 | D = -1.0 | E = 1.1

> CN(C)CC[C@@H](c1ccc(Cl)cc1)c1ccccn1
  A = -0.9 | B = -7.6 | C = 2.5 | D = 0.3 | E = 0.1

> CCN1CCN(C(=O)N[C@@H](C(=O)N[C@@H]2C(=O)N3C(C(=O)O)=C(CSc4nnnn4C)CS[C@H]23)c2ccc(O)cc2)C(=O)C1=O
  A = 5.1 | B = -0.2 | C = 0.8 | D = -0.1 | E = -5.7

> O=c1[nH]c2ccccc2n1CCCN1CCC(n2c(=O)[nH]c3cc(Cl)ccc32)CC1
  A = -1.5 | B = -6.7 | C = -1.5 | D = -4.4 | E = 3.2

> COc1ccc2cc(C(C)C(=O)O)ccc2c1 (stereo unspecified)
  A = 3.2 | B = 0.7 | C = 2.4 | D = -3.0 | E = 2.5

> NNC(=O)c1nc(-c2ccccc2)cc(-c2ccccc2)n1
  A = x | B = 6.5 | C = -0.8 | D = -4.9 | E = 3.4

> COP(=S)(OC)SCn1nnc2ccccc2c1=O
  A = x | B = -4.5 | C = x | D = -1.4 | E = x

> Cc1cnc(C(=O)NCCc2ccc(S(=O)(=O)NC(=O)NC3CCCCC3)cc2)cn1
  A = -4.2 | B = 6.7 | C = -1.4 | D = 0.4 | E = 1.5

> Nc1ccn([C@H]2CS[C@@H](CO)O2)c(=O)n1
  A = 4.4 | B = -3.4 | C = 1.3 | D = -1.0 | E = -0.8

> COc1cc2nc(N3CCN(C(=O)c4ccco4)CC3)nc(N)c2cc1OC
  A = 6.2&9.3 | B = 1.8 | C = -0.7&3.2 | D = -0.4 | E = 5.3

> CCN(CC)c1ccc2c(C)cc(=O)oc2c1
  A = -1.1 | B = 2.3 | C = -1.0 | D = -1.3 | E = 0.6

> Cc1cc(C(C)(C)C)c(O)c(C(C)(C)C)c1
  A = 2.6 | B = -2.4 | C = -0.9 | D = -0.8 | E = -0.3

# 4 records drawn at random from those above:
# Short forms – A = Rv3671c protease; B = PrPC TRFRET; C = UGM FP inh; D = FadD28 FP inh; E = Mtb BioA inh
> COc1cc2nc(N3CCN(C(=O)c4ccco4)CC3)nc(N)c2cc1OC
  A = 6.2&9.3 | B = 1.8 | C = -0.7&3.2 | D = -0.4 | E = 5.3

> COc1ccc2cc(C(C)C(=O)O)ccc2c1 (stereo unspecified)
  A = 3.2 | B = 0.7 | C = 2.4 | D = -3.0 | E = 2.5

> Cc1cnc(C(=O)NCCc2ccc(S(=O)(=O)NC(=O)NC3CCCCC3)cc2)cn1
  A = -4.2 | B = 6.7 | C = -1.4 | D = 0.4 | E = 1.5

> COP(=S)(OC)SCn1nnc2ccccc2c1=O
  A = x | B = -4.5 | C = x | D = -1.4 | E = x

# Screens: PubChem BioAssay, several laboratories

# Some of the compounds tested; the hit share may differ from the screen's.
